# Ecoli rRNA inh: inhibitors of bacterial rRNA selective over humanized ribosomes. AID 720706. GFP signal change (wild-type ribosome), % (no concentration beside the values). E. coli WT GFP vs humanized-ribosome RFP mutants, fluorescence, 24 h; stronger effect = lower value; DMSO median 0, no signal -100. 350,000 compounds, 1.6% hits;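 active = significant combined selectivity score with lowered wild-type GFP, culture density cut under 30%, mutant RFP and density less affected; inactive = any of these conditions unmet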; note: one replicate is shown; some compounds called inactive have numbers as strong as hits
# FGF22 binding: FGF22 (human) thermal shift binding | calls only at 9.99 µM | 340,000 compounds, 1.5% hits | recombinant FGF22 thermal shift, SYPRO orange fluorescence; percent of sucrose octasulfate shift, DMSO zero | AID 651658;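 active = melting point raised past a set limit in the mean and every replicate; inconclusive = no clear call; three in four hits are not shown here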
# Target sequence (Q9HCT0 whole entry, looked up): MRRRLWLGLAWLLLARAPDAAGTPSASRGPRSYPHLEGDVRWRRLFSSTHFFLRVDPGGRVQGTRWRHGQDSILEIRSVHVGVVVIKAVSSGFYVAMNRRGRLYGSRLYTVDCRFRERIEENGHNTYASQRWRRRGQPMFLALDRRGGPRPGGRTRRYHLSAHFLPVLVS
# AF4-AF9 inh: MLL-AF4/AF9 protein interaction inhibition | AID 651704 | AlphaScreen, biotin-AF4 peptide binding to FLAG-AF9 | 350,000 compounds, 0.47% hits | inhibition, % at 10 µM | P42568;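 active = every replicate reaching a set inhibition limit, whatever the replicate mean, cut at about 25% in these data; inconclusive = mean inhibition reaches that limit but some replicates miss it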;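 note: 0% = plate neutral control median and 100% = total signal loss; the record names both 10 and 1 µM as test concentration; the first replicate is given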
# Target sequence (P42568 whole entry, looked up): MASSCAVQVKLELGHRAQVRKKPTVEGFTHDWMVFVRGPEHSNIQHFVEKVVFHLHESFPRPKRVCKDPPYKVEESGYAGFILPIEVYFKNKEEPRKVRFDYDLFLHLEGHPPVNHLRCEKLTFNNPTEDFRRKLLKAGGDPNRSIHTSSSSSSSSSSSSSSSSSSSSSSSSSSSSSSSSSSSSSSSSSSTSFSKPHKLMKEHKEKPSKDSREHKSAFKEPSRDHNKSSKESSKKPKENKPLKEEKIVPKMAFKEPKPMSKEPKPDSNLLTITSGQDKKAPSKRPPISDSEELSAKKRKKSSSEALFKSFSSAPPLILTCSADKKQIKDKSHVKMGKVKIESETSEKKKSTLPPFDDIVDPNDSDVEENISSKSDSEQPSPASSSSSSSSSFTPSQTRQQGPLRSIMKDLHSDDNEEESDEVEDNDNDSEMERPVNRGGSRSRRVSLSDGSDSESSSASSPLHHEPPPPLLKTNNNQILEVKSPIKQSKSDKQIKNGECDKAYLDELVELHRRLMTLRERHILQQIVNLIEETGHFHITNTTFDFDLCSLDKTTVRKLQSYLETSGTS
# RanGTP-Impb inh: disruptors of Ran-importin-beta complex formation – biochemical, FRET, CFP-Ran, YFP-importin-beta, homogeneous, primary screen; 300,000 compounds, 1.1% hits; cell-free CFP-Ran/YFP-importin-beta FRET ratio; inhibition, % (test concentration not listed);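 active = most replicates above 15%; inconclusive = exactly half above 15%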;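 note: 0% = DMSO wells and 100% = Ran loaded with GDP instead of GTP; wells of about 40 µL received 100 nL stock; the first replicate is given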
# Calb FLC: affects C. albicans growth with fluconazole | 300,000 compounds, 0.57% hits | AID 1979 | C. albicans CaCi-2 (fluconazole-resistant clinical isolate) + fluconazole, Alamar Blue growth, 48 h | growth inhibition, % (no concentration beside the values);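 active = most replicates above 75%; inconclusive = exactly half above 75%; inactive = most below 75%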;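 note: all wells also contain fluconazole at 8 µg/ml as a sub-toxic cotreatment; 0% = median of DMSO wells and 100% = median of geldanamycin control wells; wells of about 8 µL received 7.5 nL stock; the first replicate is given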
# T cruzi inh: T. cruzi replication inhibition; T. cruzi beta-gal in NIH3T3, luminescence, 90 h; AID 1885; inhibition, % (no concentration beside the values); 300,000 compounds, 1.4% hits;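 active = mean inhibition across valid replicates above about 55%, limit read from the data; inconclusive = mean below that limit but half or more replicates reach it; inactive = mean below it, under half of replicates reach it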;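 note: signal also drops with host cell toxicity which is not excluded here; 0% = plate median of DMSO wells and 100% = zero luminescence signal; higher percent means less beta-gal luminescence so fewer parasites; stock transfer was 50 nL into about 50 µL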
# ALR inh: human ALR oxidase inhibition via reduced H2O2; P55789; purified ALR, DTT oxidation, H2O2 HRP-luminol luminescence; inhibition, % (test concentration not listed); 290,000 compounds, 3.8% hits;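 active = mean and each replicate at 75% or more; inconclusive = only one of the two met; inactive = neither met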;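 note: stock transfer was 7.5 nL into about 7.5 µL; 0% = neutral wells and 100% = wells with inactivated enzyme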
# Target sequence (P55789 whole entry, looked up): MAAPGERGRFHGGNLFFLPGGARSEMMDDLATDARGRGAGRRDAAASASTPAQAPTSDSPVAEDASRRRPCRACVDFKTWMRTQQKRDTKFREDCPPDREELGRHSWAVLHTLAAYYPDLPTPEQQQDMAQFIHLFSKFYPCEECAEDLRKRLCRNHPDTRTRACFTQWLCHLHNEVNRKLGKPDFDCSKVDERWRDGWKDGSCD
# Beta apoptosis: beta cell apoptosis inhibition | INS-1E cytokine-induced death, ATP luminescence, 48 h; percent of positive-control rescue, neutral wells zero | protection from apoptosis, % (test concentration not listed) | 300,000 compounds, 0.8% hits | AID 435005;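 active = all replicates at 75% or more, or half of them and the mean; inconclusive = half reach 75% but not the mean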;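 note: 0% = cytokine-treated negative control wells and 100% = positive control rescue; higher means more ATP so stronger rescue from cytokine killing; wells of about 40 µL received 100 nL stock; the first replicate is given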
# Ecoli rRNA inh OD600: further read-out of Ecoli rRNA inh, marked with its call; OD600 change, %; measured here: OD600 growth;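 optical density of the mix in the first replicate; 0 = DMSO median and -100 = no signal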
# Ecoli rRNA inh RFP: second read-out of Ecoli rRNA inh, no call of its own (marks repeat the call); RFP signal change, %; measured here: RFP humanized mutant strains;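 first replicate; 0 = DMSO median and -100 = no signal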
# Numbers without * were called inactive; i = inactive; u = inconclusive; x = not tested or not shown; + = active, no number. This is a subset, so the mix of outcomes need not match the whole.
SMILES,Ecoli rRNA inh,Ecoli rRNA inh OD600,Ecoli rRNA inh RFP,FGF22 binding,AF4-AF9 inh,RanGTP-Impb inh,Calb FLC,T cruzi inh,ALR inh,Beta apoptosis
CCOC(=O)C1=C(c2ccccc2)N=C2SCC(=O)N2C1c1ccc2c(c1)OCO2 (centres undefined),x,x,x,x,x,5.0,-4.6,-14.6,-3.0,-8.8
Cc1nnc(SCC(=O)Nc2ccc(F)cc2)n(N)c1=O,6.9,6.3,0.6,i,0.2,4.5,-2.5,-4.5,-30.3,-6.4
CCCCC(=O)Nc1ccc(C(=O)c2ccccc2)cc1,-30.2,-52.7,2.9,i,-1.6,-1.9,2.6,4.7,-7.6,12.9
CCOC(=O)c1ccccc1NC(=O)c1ccccc1N(C)S(C)(=O)=O,x,x,x,x,x,4.0,-0.9,-3.6,-0.9,0.4
COc1cc(NC(=O)Cc2cccc3ccccc23)c(C(=O)O)cc1OC,-37.9,-70.3,-5.9,i,-0.5,1.1,-3.2,1.0,14.8,x
CCOC(=O)c1[nH]c(C)c(C(=O)NCCc2ccc(OC)cc2)c1C,7.5,-3.2,-5.5,i,-11.6,-3.5,-19.8,-5.9,-6.1,1.4
Clc1ccc(CSCCc2ccncc2)cc1,x,x,x,x,x,-3.8,-0.3,25.7,-10.5,-10.5
Cc1ccc(SCC(=O)c2ccc[nH]2)cc1,1.0,5.9,4.0,i,0.8,4.1,-8.3,6.7,-5.5,0.7
CC1CC1C(=O)Nc1cc(S(=O)(=O)N2CCOCC2)ccc1N1CCCC1 (centres undefined),9.2,6.8,-5.6,i,-0.1,-0.5,-7.0,-4.5,-15.9,-0.6
COc1ccc(-c2cnnc(N/N=C/C(C)=C/c3ccccc3)n2)cc1,x,x,x,x,x,u,22.6,-17.8,-1.8,-4.1
CCN(CC)c1ccc(C(=O)c2cnc(/N=C/N(C)C)s2)cc1,-26.4,-32.0,-0.4,i,0.2,-1.3,-0.4,0.7,x,-2.0
O=C(c1cnn2c(C(F)F)cc(-c3ccccc3)nc12)N1CCc2ccccc2C1,-31.9,-41.6,-3.8,i,3.0,-0.3,3.0,39.4,-5.0,5.8
Cc1cc(NC(=O)CSc2ccc(F)cc2)no1,7.7,9.9,-0.4,i,-0.6,-1.9,-1.0,-0.9,x,-14.1
CC(C)(C)c1ccc(OCCC(=O)OCC(=O)NCc2ccccc2)cc1,-34.0*,-19.1*,-3.9*,i,-2.2,-0.9,4.4,-3.9,5.3,0.6
COc1ccc(C(=O)NCc2nnc(SCC(=O)NC3CCCCC3)o2)cc1,6.4,6.4,-0.5,i,0.6,6.0,-3.1,36.1,1.4,-5.9
COc1ccc(CN(C)C(=O)c2ccc(COc3ccccc3)cc2)c(OC)c1,-0.6,-37.9,4.4,i,-2.0,-3.2,-5.4,20.3,x,4.3
CCc1ccc(NC(=O)C/C(C)=N/NC(=O)COc2ccc(C)cc2Br)cc1,6.0,-0.2,2.8,i,-2.7,1.5,-21.1,-7.7,-0.9,-0.2
O=C(c1ccc(=O)oc1)N1CCN(C(c2ccccc2)c2ccccc2)CC1,x,x,x,x,x,1.3,0.1,-25.6,1.0,-4.6
O=S(=O)(NC1CCN(Cc2ccccc2)CC1)c1cccc2cccnc12,16.8,0.5,-2.3,i,11.1,0.6,11.2,0.2,9.9,6.0
COc1cc(/C=N/NC(=O)c2cccc(S(=O)(=O)N3CCCCC3)c2)cc(Br)c1O,6.5,1.4,-2.0,i,-0.3,-0.5,37.4,-5.5,3.0,5.1
COc1ccc(-c2csc(NC(=O)CN3C(=O)NC4(CCCC4)C3=O)n2)cc1OC,-15.0,-15.8,-2.6,i,3.3,-2.4,-7.4,5.5,43.5,-5.2
CNC(=O)CSc1nc(-c2ccccc2)c(-c2ccccc2)[nH]1,x,x,x,x,x,-0.5,3.3,5.2,u,-6.3
N/C(=N\NS(=O)(=O)c1ccc(Cl)cc1)c1ccccn1,-3.6,0.4,-2.0,i,-1.9,1.3,4.0,0.0,68.5,x
CCOC(=O)c1cc(C#N)c(SCC(=O)Nc2ccc(C(C)=O)cc2)[nH]c1=O,-10.8,-14.9,2.9,+,1.6,2.1,67.9,2.3,98.9*,-8.5
Cc1n[nH]c(C)c1CN(C)C(=O)C1CCC(=O)N(CC2CCCCC2)C1 (centres undefined),6.1,11.4,-0.4,i,-0.4,4.2,-21.0,-21.0,0.6,-1.0
Cc1nn(C)c(C)c1S(=O)(=O)N1CCC(C(=O)NC(C)c2ccccc2)CC1 (centres undefined),2.5,6.7,3.0,i,-1.1,-1.2,-5.0,-0.1,1.4,-2.8
Cc1cccc(C)c1NC(=O)CNC(=O)c1cncc(Br)c1,5.3,17.9,0.8,i,0.1,-3.8,1.9,-6.9,-0.5,-3.2
COc1ccc(NC(=O)NN(C(=O)c2ccccc2)C(C)(C)C)cc1,x,x,x,x,x,-2.8,-0.1,-2.6,-0.4,-4.1
COc1ccc(Cc2nnc(NC(=O)CS(=O)(=O)c3ccccc3)s2)cc1OC,3.8,6.5,-0.9,i,-0.9,0.2,-3.2,-39.5,-2.6,4.4
COc1ccccc1C(=O)COC(=O)c1cnc(C)cn1,1.0,1.4,-2.1,i,-1.9,x,-5.1,-2.7,-6.0,-1.7
CCOC(=O)c1cnc(SCC(=O)N2CCC(C(N)=O)CC2)nc1N,12.3,10.2,-5.2,i,-5.7,-2.5,-11.1,-1.4,x,-7.3
Cc1onc(-c2c(Cl)cccc2Cl)c1/C(N)=N/OC(=O)C(C)(C)C,5.9,1.2,0.9,i,x,0.4,-16.9,-0.1,-3.3,x
COc1ccccc1NS(=O)(=O)c1ccc(NC(=O)CCNC(=O)c2ccco2)cc1,x,x,x,x,x,-2.4,1.6,-8.3,-6.1,3.1
COc1nc(OC)nc(Oc2ccc([N+](=O)[O-])cc2Cl)n1,x,x,x,x,x,-2.0,7.6,-6.6,5.8,-3.8
Cc1ccccc1CNCc1ccc2c(c1)OCO2,9.5,-1.6,-8.3,i,1.5,-1.0,-14.7,-8.5,x,x
CC(=O)Nc1ccc(S(=O)(=O)NCC(=O)OCC(=O)N2CCCc3ccccc32)cc1,x,x,x,x,x,-3.3,-8.3,-16.5,1.5,-2.6
CC(=O)Nc1ccc(C2=NN(Cc3nnc(-c4ccccc4)o3)C(=O)SC2)cc1,x,x,x,x,x,2.0,-11.2,11.2,x,4.2
O=C(c1cccc(C(F)(F)F)c1)N(c1ccccn1)C1CCCCC1,-5.3,-0.8,2.1,x,-0.9,1.9,-17.1,-2.9,5.5,-2.5
O=C1COc2ccc(C(=O)COC(=O)c3ccc4ccccc4n3)cc2N1,x,x,x,x,x,1.9,2.2,3.1,-1.7,-11.0
Cc1cccc(C)c1NC(=O)C(NS(=O)(=O)c1cccs1)c1ccccc1 (centres undefined),-2.9,-0.1,4.1,i,4.4,2.4,-0.4,-12.6,x,-9.5

# In another format: entries from further up.
Cc1ccccc1CNCc1ccc2c(c1)OCO2
- Ecoli rRNA inh: 9.5
- Ecoli rRNA inh OD600: -1.6
- Ecoli rRNA inh RFP: -8.3
- FGF22 binding: i
- AF4-AF9 inh: 1.5
- RanGTP-Impb inh: -1.0
- Calb FLC: -14.7
- T cruzi inh: -8.5
- ALR inh: x
- Beta apoptosis: x
CC(=O)Nc1ccc(S(=O)(=O)NCC(=O)OCC(=O)N2CCCc3ccccc32)cc1
- Ecoli rRNA inh: x
- Ecoli rRNA inh OD600: x
- Ecoli rRNA inh RFP: x
- FGF22 binding: x
- AF4-AF9 inh: x
- RanGTP-Impb inh: -3.3
- Calb FLC: -8.3
- T cruzi inh: -16.5
- ALR inh: 1.5
- Beta apoptosis: -2.6

# Later entries
SMILES,Ecoli rRNA inh,Ecoli rRNA inh OD600,Ecoli rRNA inh RFP,FGF22 binding,AF4-AF9 inh,RanGTP-Impb inh,Calb FLC,T cruzi inh,ALR inh,Beta apoptosis
COc1ccc(NC(=O)C2C3CCC4C(CCC32)C4(Cl)Cl)cc1 (centres undefined),x,x,x,x,x,-0.8,-13.7,-5.4,0.8,-5.9
COc1ccc(OCc2cc(C(=O)NC3CCOC(C)(C)C3)no2)c2ccccc12 (centres undefined),18.0,-0.5,2.5,i,5.0,-4.9,21.4,1.7,-19.4,7.6
CN1OC(c2ccccc2)=C(CO)C1c1ccccc1 (centres undefined),x,x,x,x,x,2.0,0.4,-11.7,-3.1,-0.4
O=C(CCc1nnc(Cc2ccc(-c3ccccc3)cc2)o1)N1CCCC1,-6.5,-9.9,0.6,i,-0.6,-3.2,-6.2,6.2,x,-4.7
Cc1ccc(C2=NN(C(=O)CCC(=O)O)C(c3cccc([N+](=O)[O-])c3)C2)cc1 (centres undefined),3.4,-0.2,-6.0,i,1.4,2.6,8.9,11.5,24.9,-3.8
CC(OC(=O)CNC(=O)c1cccc(F)c1)C(=O)NC1CCCCC1C (centres undefined),2.0,7.6,-1.2,i,-13.4,18.8*,-0.9,6.1,-1.7,x
CCOC(=O)C1C(=O)C(C(C)=O)C(=O)CC1CC(C)SCC (centres undefined),8.9,19.5,0.2,i,5.1,4.7,-5.9,-0.6,-3.9,1.8
COc1ccc(-c2cn3cccnc3n2)cc1NS(=O)(=O)c1ccccc1,5.6,4.0,-3.5,i,0.1,2.5,22.9,-1.8,0.3,-0.3
CCCCn1c2nc3ccccc3nc2c2c(=O)n(-c3ccccc3)cnc21,17.4,13.7,-0.1,i,-3.1,2.1,-15.9,4.1,-8.7,8.7
O=c1c(/C=N\NS(=O)(=O)c2ccccc2)coc2ccc(Cl)cc12,0.9,0.4,-1.5,i,2.0,-0.3,-0.7,-7.3,3.6,-4.1
COC(=O)C1=C(C)NC=C([N+](=O)[O-])C1c1ccc(OC)cc1 (centres undefined),4.8,-0.5,0.4,i,3.7,-4.3,-3.3,17.7,5.5,-2.2
CN1C(=O)C(=O)/C(=C(/O)c2ccc(Br)cc2)C1c1ccc(F)cc1 (centres undefined),-15.7,-17.4,1.7,i,0.4,6.6,-0.8,0.2,-1.9,-1.8

# Quoted at random: 4 entries already listed
SMILES,Ecoli rRNA inh,Ecoli rRNA inh OD600,Ecoli rRNA inh RFP,FGF22 binding,AF4-AF9 inh,RanGTP-Impb inh,Calb FLC,T cruzi inh,ALR inh,Beta apoptosis
COc1ccc(NC(=O)C2C3CCC4C(CCC32)C4(Cl)Cl)cc1 (centres undefined),x,x,x,x,x,-0.8,-13.7,-5.4,0.8,-5.9
O=c1c(/C=N\NS(=O)(=O)c2ccccc2)coc2ccc(Cl)cc12,0.9,0.4,-1.5,i,2.0,-0.3,-0.7,-7.3,3.6,-4.1
COc1ccc(OCc2cc(C(=O)NC3CCOC(C)(C)C3)no2)c2ccccc12 (centres undefined),18.0,-0.5,2.5,i,5.0,-4.9,21.4,1.7,-19.4,7.6
CCOC(=O)C1C(=O)C(C(C)=O)C(=O)CC1CC(C)SCC (centres undefined),8.9,19.5,0.2,i,5.1,4.7,-5.9,-0.6,-3.9,1.8
